# Ecoli rRNA inh – selective bacterial rRNA inhibition in E. coli; E. coli WT GFP vs humanized-ribosome RFP mutants, fluorescence, 24 h; active compounds read low; DMSO median 0, no signal -100; GFP signal change (wild-type ribosome), % (no concentration beside the values); actives 1.6% (n = 350,000); AID 720706;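 active = significant combined selectivity score with lowered wild-type GFP, culture density cut under 30%, mutant RFP and density less affected; inactive = any of these conditions unmet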; note: one replicate is shown; some compounds called inactive have numbers as strong as hits
# FGF22 binding – shifts melting point of recombinant human FGF22 | actives 1.5% (n = 340,000) | Q9HCT0 | recombinant FGF22 thermal shift, SYPRO orange fluorescence; percent of sucrose octasulfate shift, DMSO zero | calls only at 9.99 µM | AID 651658;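 active = melting point raised past a set limit in the mean and every replicate; three in four hits are not shown here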
# Target sequence (Q9HCT0 whole entry, looked up): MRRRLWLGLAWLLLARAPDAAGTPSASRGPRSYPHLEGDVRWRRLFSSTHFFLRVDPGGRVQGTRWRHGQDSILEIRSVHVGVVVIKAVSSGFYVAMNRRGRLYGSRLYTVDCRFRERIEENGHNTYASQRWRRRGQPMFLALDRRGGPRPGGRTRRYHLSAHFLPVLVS
# Ecoli rRNA inh OD600 – also measured in Ecoli rRNA inh; calls as there; OD600 change, %; measured here: OD600 growth;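 optical density of the mix in the first replicate; 0 = DMSO median and -100 = no signal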
# Ecoli rRNA inh RFP – recorded beside Ecoli rRNA inh, whose call it bears; RFP signal change, %; measured here: RFP humanized mutant strains;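 first replicate; 0 = DMSO median and -100 = no signal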
# The depositor's hits bear a star; i = inactive; . = no result given. These rows are one share of the data; rates above refer to the full screens.
SMILES,Ecoli rRNA inh,Ecoli rRNA inh OD600,Ecoli rRNA inh RFP,FGF22 binding
COc1ccc2c3c([nH]c2c1)[C@@H](CO)N(Cc1ccncc1)CC31CN(Cc2ccc(-c3ccccn3)cc2)C1,-7,-20,-0.9,i
O=S(=O)(Cc1ccccc1)N1CCCCN2[C@@H](CO)[C@@H](c3ccc(C#Cc4ccccc4)cc3)[C@@H]2C1,2,15,-1.2,i
COCC#Cc1ccc([C@H]2[C@H]3CN(C(=O)COC)CCCCN3[C@H]2CO)cc1,5,2,-2.9,i
O=C(Nc1ccc2c(c1)[C@@H]1C[C@@H](CC(=O)N3CCCCC3)O[C@H](CO)[C@@H]1O2)C1CCOCC1,3,3,0.7,i
C[C@H]1CCCCO[C@@H](CN(C)S(=O)(=O)c2ccccc2)[C@@H](C)CN([C@@H](C)CO)C(=O)c2cc(NS(=O)(=O)c3ccc(F)cc3)ccc2O1,-3,2,0.7,i
COCC(=O)Nc1ccc2c(c1)OC[C@H](C)N(CC1CCCCC1)C[C@H](C)[C@H](OC)CN(C)C2=O,3,3,2.0,i
C/C=C/c1cnc2c(c1)C(=O)N([C@H](C)CO)C[C@@H](C)[C@@H](CN(C)C(=O)NCCC)O2,6,6,0.6,i
CNC(=O)C[C@@H]1CC[C@@H]2[C@@H](COc3ccc(NC(=O)c4ccc(F)c(F)c4)cc3C(=O)N2C)O1,2,-7,2.2,i
COC(=O)C[C@H]1CC[C@@H]2[C@@H](COc3ccc(NS(=O)(=O)c4ccccc4Cl)cc3C(=O)N2C)O1,-1,-1,-0.3,i
CN(C)C(=O)c1cccc(-c2ccc3c(c2)[C@H]2[C@H](CCN2C(=O)C2CCCCC2)[C@@H](CO)N3)c1,-6,-1,-4.7,i

# Part of the list above, set out differently.
Ecoli rRNA inh	Ecoli rRNA inh OD600	Ecoli rRNA inh RFP	FGF22 binding	mol
-7	-20	-0.9	i	COc1ccc2c3c([nH]c2c1)[C@@H](CO)N(Cc1ccncc1)CC31CN(Cc2ccc(-c3ccccn3)cc2)C1
2	15	-1.2	i	O=S(=O)(Cc1ccccc1)N1CCCCN2[C@@H](CO)[C@@H](c3ccc(C#Cc4ccccc4)cc3)[C@@H]2C1

# The main list resumes, repeating the 3 entries before the break.
SMILES,Ecoli rRNA inh,Ecoli rRNA inh OD600,Ecoli rRNA inh RFP,FGF22 binding
CNC(=O)C[C@@H]1CC[C@@H]2[C@@H](COc3ccc(NC(=O)c4ccc(F)c(F)c4)cc3C(=O)N2C)O1,2,-7,2.2,i
COC(=O)C[C@H]1CC[C@@H]2[C@@H](COc3ccc(NS(=O)(=O)c4ccccc4Cl)cc3C(=O)N2C)O1,-1,-1,-0.3,i
CN(C)C(=O)c1cccc(-c2ccc3c(c2)[C@H]2[C@H](CCN2C(=O)C2CCCCC2)[C@@H](CO)N3)c1,-6,-1,-4.7,i
C[C@H](CO)N1C[C@H](C)[C@@H](CN(C)C)Oc2ccc(NS(=O)(=O)c3ccc(F)cc3)cc2CC1=O,7,2,0.1,i
N#C[C@H]1[C@H](c2ccc(C3=CCCCC3)cc2)[C@@H](CO)N1S(=O)(=O)c1cccc(F)c1,2,0,0.2,i
C[C@@H]1CCCCO[C@H](CN(C)C(=O)Nc2ccccc2)[C@H](C)CN([C@@H](C)CO)C(=O)c2cc(NC(=O)Nc3ccc(C(F)(F)F)cc3)ccc2O1,5,3,-2.7,i
CO[C@@H]1CC[C@H]2CCOc3ccc(C#N)cc3C(=O)N(C)[C@H](C)C(=O)N(C)C[C@H]1O2,0,8,-1.5,i
COc1cccc(CN2CCCCN3[C@H](C2)[C@@H](c2ccc(C#Cc4cccnc4)cc2)[C@@H]3CO)c1,-3,-49,28,i
CO[C@H]1CN(C)C(=O)c2cc(NC(=O)NC3CCCCC3)ccc2OC[C@@H](C)N(CC2CCOCC2)C[C@H]1C,7,-3,-1.0,i
COc1ccc(CN(C)C[C@H]2Oc3ccc(NC(=O)Nc4ccc(C(F)(F)F)cc4)cc3C(=O)N([C@@H](C)CO)C[C@@H]2C)cc1,-19,-38,13,i
C/C=C/c1ccc([C@@H]2[C@H]3CN(CCC(F)(F)F)CCCCN3[C@H]2CO)cc1,6,11,-0.4,i
C[C@H](CO)N1C[C@H](C)[C@H](CN(C)C(=O)Nc2cccc3ccccc23)Oc2ccc(NS(=O)(=O)c3ccccc3)cc2CC1=O,1,-1,2.7,i
C/C=C/c1ccc([C@H]2[C@H](CO)N3CCCCN(S(=O)(=O)c4cccs4)C[C@@H]23)cc1,-25,-64,16,i
Cc1noc(C)c1S(=O)(=O)Nc1ccc2c(c1)CC(=O)N([C@@H](C)CO)C[C@@H](C)[C@H](CN(C)S(=O)(=O)c1cccs1)O2,-3,-9,1.2,i
COC(=O)c1cc2c(c3c4ccccc4n(S(C)(=O)=O)c13)C(=O)N(Cc1ccccc1)C2,-6,-3,2.1,i
CCCN(C)C[C@@H]1Oc2ncc(-c3ccccc3OC)cc2C(=O)N([C@H](C)CO)C[C@@H]1C,8,4,-2.7,i
COc1ccc(NC(=O)Nc2ccc3c(c2)CC(=O)N([C@H](C)CO)C[C@H](C)[C@@H](CN(C)S(=O)(=O)c2ccccc2)O3)cc1,0,1,0.1,i
Cc1noc(C)c1NC(=O)Nc1cccc2c1O[C@H](CN(C)Cc1ccc(Oc3ccccc3)cc1)[C@H](C)CN([C@H](C)CO)C2=O,-2,-11,1.6,i
CC(C)NC(=O)N1CC[C@@H]2[C@H]1c1cc(-c3cccc(F)c3)ccc1N(C)[C@@H]2CO,-3,-1,-2.7,i
C[C@H](NC(=O)C[C@@H]1C[C@H]2c3cc(NC(=O)NC4CCCCC4)ccc3O[C@H]2[C@H](CO)O1)c1ccccc1,-7,-16,0.5,i
C[C@H](CO)N1C[C@H](C)[C@H](CN(C)C(=O)Nc2ccc3c(c2)OCO3)Oc2ncc(/C=C/c3ccccc3)cc2C1=O,-2,-15,7.0,i
C[C@H]1CN([C@@H](C)CO)S(=O)(=O)c2ccc(C#Cc3ccncc3)cc2O[C@@H]1CN(C)S(=O)(=O)c1ccccc1,-5,-11,7.6,i
Cc1noc(C)c1S(=O)(=O)N(C)C[C@@H]1Oc2ccc(NC(=O)CCCCCC(=O)Nc3ccccc3N)cc2CC(=O)N([C@H](C)CO)C[C@H]1C,-1,7,0.8,i
C[C@@H]1CN([C@H](C)CO)C(=O)c2cc(NC(=O)c3ccncc3)ccc2O[C@@H](C)CCCCO[C@H]1CN(C)C(=O)Nc1ccc(C(F)(F)F)cc1,1,-8,3.2,i
CN(C)CC(=O)N[C@@H]1CC[C@@H](CCn2cc(CN(C)C)nn2)O[C@@H]1CO,2,4,-2.5,i
C[C@H](CO)N1C[C@H](C)[C@@H](CN(C)Cc2ccccn2)Oc2cc(C#CC3CC3)ccc2S1(=O)=O,-18,-40,1.8,i
COc1ccc(-c2ccc3c(c2)O[C@H](CN(C)Cc2ccccc2C(=O)O)[C@H](C)CN([C@H](C)CO)S3(=O)=O)cc1,-9,-10,-1.5,i
Cc1ccc(S(=O)(=O)N[C@@H]2C=C[C@@H](CC(=O)NCCc3ccncc3)O[C@H]2CO)cc1,0,7,-3.5,i
CN1C(=O)c2cc(NS(C)(=O)=O)ccc2OC[C@@H]2O[C@H](CC(=O)NC3CCCCC3)CC[C@@H]21,0,4,-1.1,i
CC=Cc1ccc2n(c1=O)C[C@H]1[C@H](CO)[C@@H](C(=O)NCc3ccncc3)N(Cc3ccncc3)[C@@H]21 (mixture of isomers),3,2,2.4,i
C[C@H]1CN([C@@H](C)CO)C(=O)c2cccc(NC(=O)c3nc4ccccc4s3)c2O[C@H]1CN(C)CC1CCCCC1,-1,-7,6.4,i
COc1ccc2c3c([nH]c2c1)[C@H](CO)N(C(=O)Nc1ccc(F)cc1)CC31CCN(C(=O)Cc2ccccc2)CC1,-3,-8,7.2,i
C[C@H]1CN([C@@H](C)CO)C(=O)c2cc(-c3ccccc3)cnc2O[C@H]1CN(C)C(=O)Cc1ccccc1,0,2,2.3,i
C[C@H]1CCCCO[C@H](CN(C)C(=O)Nc2ccc(C(F)(F)F)cc2)[C@@H](C)CN([C@@H](C)CO)C(=O)c2cc(NS(=O)(=O)c3cn(C)cn3)ccc2O1,-7,-19,-0.9,i
Cc1noc(C)c1NC(=O)Nc1ccc2c(c1)CC(=O)N([C@@H](C)CO)C[C@@H](C)[C@@H](CN(C)Cc1ccc(C(=O)Nc3ccccc3N)cc1)O2,-3,1,-0.4,i
C[C@H](O)C#Cc1ccc2c(c1)O[C@H](CN(C)C(=O)C1CC1)[C@@H](C)CN([C@H](C)CO)S2(=O)=O,8,12,-1.4,i
O=C(N[C@H]1CC[C@@H](CCNS(=O)(=O)c2ccc(F)cc2)O[C@@H]1CO)C1CCCC1,-3,-2,-2.1,i
COCC#Cc1cnc2c(c1)C(=O)N([C@@H](C)CO)C[C@H](C)[C@H](CN(C)C(C)=O)O2,5,13,-1.4,i
CCCC(=O)Nc1ccc2c(c1)C(=O)N(C)[C@H]1CC[C@@H](CC(=O)N3CCCCC3)O[C@H]1CO2,2,5,-1.2,i
C[C@H]1CN([C@@H](C)CO)C(=O)c2cc(C#Cc3ccccc3F)cnc2O[C@H]1CN(C)C(=O)Cc1ccccc1,-6,-33,18,i
COc1ccc2c3c(n(C)c2c1)[C@H](CO)N(C(=O)c1cnccn1)CC31CN(C(=O)c2ccncc2)C1,1,3,-1.4,i
COCC(=O)N1CCCCN2[C@H](CO)[C@@H](c3ccc(-c4cccc(C)c4)cc3)[C@@H]2C1,0,-1,-0.5,i
C[C@H](CO)N1C[C@H](C)[C@H](CN(C)Cc2ccncc2)Oc2c(NS(=O)(=O)c3ccccc3)cccc2C1=O,2,1,-1.6,i
CN1C(=O)c2cc(NC(=O)Cc3cccs3)ccc2OC[C@H]2O[C@@H](CC(=O)NCC3CCCCC3)CC[C@H]21,2,-19,-3.7,i
Cc1noc(C)c1NC(=O)N(C)C[C@@H]1Oc2ccc(NC(=O)Nc3cccc4ccccc34)cc2CC(=O)N([C@@H](C)CO)C[C@H]1C,2,12,5.2,i
CC(C)NC(=O)Nc1ccc2c(c1)C(=O)N([C@H](C)CO)C[C@H](C)[C@@H](CN(C)C(=O)CCC(F)(F)F)OCCCC[C@H](C)O2,-1,1,0.1,i
COc1ccc(CN2CC3(CCN(C(=O)Cc4ccccc4)CC3)c3c([nH]c4cc(OC)ccc34)[C@H]2CO)cc1,-2,-41,40,i
Cc1ccc(S(=O)(=O)N(C)C[C@H]2OCCCC[C@H](C)Oc3ccc(NS(=O)(=O)c4ccc(F)cc4)cc3C(=O)N([C@@H](C)CO)C[C@H]2C)cc1,-1,-4,-0.9,i
C[C@@H]1CN([C@@H](C)CO)C(=O)c2cccc(NC(=O)c3ccc(-c4nccs4)cc3)c2O[C@H]1CN(C)Cc1ccc2c(c1)OCO2,-5,-7,1.1,i
O=C(NCC[C@@H]1CC[C@@H](NS(=O)(=O)Cc2ccccc2)[C@H](CO)O1)C1CC1,2,3,-2.0,i
C[C@@H]1CN([C@@H](C)CO)C(=O)CCCn2cc(nn2)CO[C@@H]1CN(C)S(=O)(=O)c1ccc(-c2ccccc2)cc1,-5,-9,2.0,i
Cc1cccc(S(=O)(=O)N2C[C@H](O)COC[C@@H]3O[C@@H](CC(=O)Nc4ccccc4)CC[C@H]32)c1,i,.,.,i
O=C(C[C@@H]1CC[C@@H](NC(=O)Nc2ccc3c(c2)OCO3)[C@@H](CO)O1)NCc1ccccc1,1,5,-1.6,i
# More entries:
SMILES,Ecoli rRNA inh,Ecoli rRNA inh OD600,Ecoli rRNA inh RFP,FGF22 binding
CO[C@@H]1CN(C)C(=O)c2cc(NS(=O)(=O)c3ccccc3)ccc2OC[C@H](C)N(C(=O)NC(C)C)C[C@H]1C,3,-1,-1.8,i
CC(C)NC(=O)Nc1ccc2c(c1)C(=O)N([C@H](C)CO)C[C@H](C)[C@H](CN(C)S(=O)(=O)c1ccccc1)O2,-2,-1,1.4,i
CCN1[C@@H]2c3ccc(-c4ccccc4OC)c(=O)n3C[C@H]1[C@H](CO)[C@H]2C(=O)N[C@@H](C)c1ccccc1,1,7,1.6,i
CCS(=O)(=O)N1[C@H](CO)[C@@H](c2ccc(C#Cc3ccccc3F)cc2)[C@@H]1C#N,-48,-76,-8.6,i
O=C(NCC(F)(F)F)[C@@H]1[C@@H](CO)[C@@H]2Cn3c(cccc3=O)[C@@H]2N1Cc1cccc(F)c1,11,14,-1.0,i
COc1ccc(S(=O)(=O)Nc2cccc3c2O[C@H](CN(C)Cc2ccc4c(c2)OCO4)[C@H](C)CN([C@H](C)CO)C3=O)cc1,-5,-13,-1.9,i
COc1ccc(NC(=O)N(C)C[C@H]2Oc3ccc(NS(=O)(=O)c4ccc(OC)cc4)cc3C(=O)N([C@@H](C)CO)C[C@@H]2C)cc1,5,5,-2.5,i
C[C@@H]1CN([C@H](C)CO)C(=O)c2cccc(NC(=O)c3ccc(-c4nccs4)cc3)c2O[C@@H]1CN(C)CC1CC1,0,2,-0.2,i

# A draw from above in order of SMILES length, low to high:
SMILES,Ecoli rRNA inh,Ecoli rRNA inh OD600,Ecoli rRNA inh RFP,FGF22 binding
CCS(=O)(=O)N1[C@H](CO)[C@@H](c2ccc(C#Cc3ccccc3F)cc2)[C@@H]1C#N,-48,-76,-8.6,i
CCN1[C@@H]2c3ccc(-c4ccccc4OC)c(=O)n3C[C@H]1[C@H](CO)[C@H]2C(=O)N[C@@H](C)c1ccccc1,1,7,1.6,i
COc1ccc(S(=O)(=O)Nc2cccc3c2O[C@H](CN(C)Cc2ccc4c(c2)OCO4)[C@H](C)CN([C@H](C)CO)C3=O)cc1,-5,-13,-1.9,i
